AID504770: E. coli YBA685 growth inhibition, screen for V. cholerae RctB inhibitors; E. coli YBA685 rctB-dependent plasmid, OD600 growth, 3 h; stronger effect = lower value; z-score (no concentration beside the values); 130,000 compounds, 0.27% hits;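 active = z-score under -2 on both plates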;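 also: wells of about 30 µL received 100 nL stock; score is relative to mean and SD of the test wells; the first replicate is given; strong numbers were not always called active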
Ba CapD inh: CapD enzyme inhibition; AID 492967; 140,000 compounds, 0.23% hits; purified CapD enzyme, fluorescence intensity read-out; stronger effect = lower value; some hits fall short of the stated cut; z-score (no concentration beside the values);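 active = z-score under -4 in either of two replicates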;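 also: stock transfer was 100 nL into about 40 µL; score is relative to mean and spread of the plate; one replicate is shown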
An asterisk follows results filed as active; . = not tested or not shown.

SMILES	AID504770	Ba CapD inh
Cc1ccc(N2C(=O)CC(SCC(=O)Nc3ccccc3)C2=O)cc1 (stereo not given)	-0.65	-0.215
CNC(=O)CCCc1nnc2n(CCC(C)C)c(=O)c3sccc3n12	-0.5	1.44
CC1N(C)c2cc(NC(=O)c3cccs3)ccc2C1(C)C (stereo not given)	-0.65	2.38
Cc1ccc(/C=C/C(=O)N(C)Cc2ccccc2)o1	-0.45	-2.09
CC1(C)C2CC=C(/C=C(\C#N)c3nc4ccccc4[nH]3)C1C2 (stereo not given)	0.05	.
CCCCc1nccn1CCn1ccnc1CCCC	-0.7	-0.32
CCCCn1nc(C(=O)NC2CCCCCC2)c2ccccc2c1=O	1.45	.
S=C(c1cccc(OCc2ccccc2)c1)N1CCCCC1	0.1	1.96
CCOC(=O)[C@@H]1Nc2c(ccc(C(=O)O)c2C)[C@@H]2C=CC[C@H]12	1.25	2.84
O=C(CSc1nc(NCc2ccccc2)c2ccccc2n1)N1CCN(c2ccccc2)CC1	.	0.52
O=C(COC(=O)C1c2ccccc2Oc2ccccc21)NC1CC1	-0.9	-1.03
COc1ccc(-c2cn3cccc(C)c3n2)cc1F	.	45.6
COc1ccc(NC(=O)CSc2nc3n[nH]c(C)c3c(=N)n2-c2ccc(Br)cc2)c(OC)c1	.	-0.745
N=c1oc2ccccc2cc1-c1nc2ccccc2c(=O)[nH]1	-0.65	1.55
C=CCN1C(=O)NC(C)(C)C1=O	-0.1	0.225
CC1CCN(S(=O)(=O)c2cn(C)c(=O)n(C)c2=O)CC1	-1.25	.
COc1ccc(NC(=O)CSc2nnc(C)n3c2cc2sccc23)cc1	-1.2	-1.87
CCn1c(SCCOc2ccccc2)nc2ccccc21	1.5	-0.93
Cc1ccc(NS(=O)(=O)c2ccc3oc(=O)c4ncn(C)c4c3c2)cc1	-0.35	-0.01
CCOc1ccc(CN2C(=O)C(NC(C)=O)c3ccccc32)cc1 (stereo not given)	0.6	.
COc1ccc(/C=N/NC(=O)c2c(-c3ccccc3)noc2C)c(O)c1	-0.95	-1.64
O=C(c1csc(-c2ccccc2)n1)N1CC=C(c2ccccc2)CC1	-0.25	0.155
CCCn1c(N)c(C(=O)CSc2nc3ccccc3s2)c(=O)[nH]c1=O	-0.8	.
CCc1nc2ccc(C(=O)NCCN3CCN(c4cccc(Cl)c4)CC3)cc2nc1CC	1.35	-0.025
Cc1nc2c(-c3ccc(F)cc3)c(C)nn2c(C)c1CCC(=O)N(C)c1ccccc1	-0.4	-0.27

Ordered by length of the SMILES (lowest first): part of the list above.
SMILES	AID504770	Ba CapD inh
CCCCn1nc(C(=O)NC2CCCCCC2)c2ccccc2c1=O	1.45	.
COc1ccc(NC(=O)CSc2nnc(C)n3c2cc2sccc23)cc1	-1.2	-1.87
Cc1ccc(N2C(=O)CC(SCC(=O)Nc3ccccc3)C2=O)cc1 (stereo not given)	-0.65	-0.215
CC1(C)C2CC=C(/C=C(\C#N)c3nc4ccccc4[nH]3)C1C2 (stereo not given)	0.05	.
CCCn1c(N)c(C(=O)CSc2nc3ccccc3s2)c(=O)[nH]c1=O	-0.8	.

Other compounds:
SMILES	AID504770	Ba CapD inh
O=C(O)C(C(=O)O)C1c2ccccc2Oc2ccccc21	1.45	0.315
O=c1c2c3c(sc2nc2n1CCC2)CCC3	-0.7	.
O=C(c1ccccc1)N1CCN(C(=O)c2ccc(OCC3CCCO3)cc2)CC1 (stereo not given)	-2.75	.
CCOc1ccc(N2C(=O)C3C4C=CC(C4)C3C2=O)cc1 (stereo not given)	2.5	-1.02
CCOC(=O)c1c(OC)cccc1OC	-0.8	-0.165
O=C(Nn1cnnc1)c1ccccc1	-0.15	-0.445
Cc1c(C(=O)Nc2c(F)cc(F)cc2Br)sc2ncn(CC(=O)N3CCC(C)CC3)c(=O)c12	.	-0.515
Cc1ccc(NC(=O)CSc2nc3ccccc3c(=O)n2NC(=O)c2ccc(F)cc2)cc1	.	1.2
CC(NC(=O)c1c(F)cccc1F)C(c1cccs1)N1CCN(C)CC1 (stereo not given)	-0.45	-0.07
N/C(CCCN1CCCCC1)=N\O	0.55	-1.23
Cc1ccc(CNC(=O)Cn2ncc3c(=O)oc4ccc(C)cc4c32)cc1	0.45	-0.09
O=C1CCCC/C1=C/Nc1ccccc1C(=O)O	-0.75	0.125
CN1CCN(C(=O)CC23CC4CC(CC(Br)(C4)C2)C3)CC1	0.7	0.305
CCCn1c(N)c(C(=O)CSc2nc3ccccc3n2CCC#N)c(=O)n(C)c1=O	-0.1	.
CC(C)CCCC(C)C1CCC2C3CC=C4CC(OC(=O)c5cccnc5)CCC4(C)C3CCC12C (stereo not given)	.	0
Cc1cc(=O)nc2c3ccccc3n(CC(=O)N(C)Cc3ccccc3)n12	-0.25	-1.22
Cn1c(CCCNC(=O)C2CCCCC2)nc2ccccc21	-0.85	0.445
Cc1ccc(NC(=O)COC(=O)c2ccccc2)cc1F	-0.45	.
CSc1ncnc2ncn(CC(=O)Nc3ccc(C)c(C)c3)c12	.	0.155
CCOC(=O)C1=C(C)N=c2s/c(=C\c3ccc4c(c3)OCO4)c(=O)n2C1c1ccc(OC)cc1OC (stereo not given)	.	-0.19
COc1ccc2c(=O)c(-c3ccccc3C)c(C(F)(F)F)oc2c1	0.15	-0.185
O=C(O)C1CCCCN1S(=O)(=O)c1ccccc1Cl (stereo not given)	0.8	.
CCN1C(=O)C2C3C=CC(C3=C3C4CC5CC(C4)CC3C5)C2C1=O (stereo not given)	0.5	1.3
CC1=C(C(=O)N2CCOCC2)C(c2ccc(N(C)C)cc2)C2=C(CC(C)(C)CC2=O)N1 (stereo not given)	0.35	-0.1
O=C(C1CCCN1S(=O)(=O)c1ccc(Cl)cc1)N1N=C2/C(=C/c3cccs3)CCCC2C1c1cccs1 (stereo not given)	1.5	.
SMILES	AID504770	Ba CapD inh
CC(C)N1CCC2(CC1)C(C#N)=C(N)NC(S)=C2C#N	-0.45	-0.81
CC(C)(CC(=O)O)CC(=O)Nc1ccccc1N1CCOCC1	1.15	-0.085
O=c1[nH]c2ccccc2nc1/C=C(\O)c1ccc(Cl)cc1	0.5	-0.345
CCOc1ccc2nc(NC(=O)C3CC(C)=CCC3C(=O)O)sc2c1 (stereo not given)	.	-0.085
CCc1ccc(NC(=O)CC(NCC2CCCO2)C(=O)O)cc1 (stereo not given)	1.15	1.03
O=C(CCc1n[nH]c(=O)[nH]c1=O)N/N=C/c1ccccc1	1.35	0.26
COCCn1cnc2sc(C(=O)N3CCCCCC3)c(C)c2c1=O	.	10.7
O=C1Nc2ccccc2SC1CC(=O)N1CCc2ccccc2C1 (stereo not given)	0.4	0.2
CCn1c(=NC(=O)c2ccc(Br)s2)sc2ccccc21	-0.5	4.93
CCOC(=O)Nc1noc2ccccc12	-0.25	0.05
CC1=C(C#N)C(=O)N(CCc2ccccc2)C(=O)/C1=C\c1ccc(-c2cccc(Cl)c2)o1	0.05	0.6
CCO/C=N/c1c(C(=O)OCC)c2nc3ccccc3nc2n1Cc1ccccc1	0.65	.
Cc1ccc2nsnc2c1S(=O)(=O)NC12CC3CC(CC(C3)C1)C2	0.5	0.16
CCOC(=O)c1c(C)oc2ccc(N(C(=O)c3ccc(C)cc3)S(=O)(=O)c3ccc(C)cc3)cc12	.	-0.355
O=C(CN1CCOCC1)NCC1COc2ccccc2O1 (stereo not given)	0.35	.
CC1=C(C(=O)c2ccccc2)C(c2ccc(N3CCOCC3)cc2)NC(=O)N1 (stereo not given)	-0.05	.
COc1ccc(/C=N/OCC(=O)Nc2ccccc2OC)cc1	0.15	.
Brc1ccc(C2=NN3C(C2)c2ccccc2OC3c2ccc(OCc3ccccc3)cc2)cc1 (stereo not given)	.	2.52
COc1ccc(C)cc1NC(=O)COCc1cc(-c2ccc3c(c2)OCO3)on1	-0.45	0.98
O=C1Nc2ccc(Br)cc2/C1=C/c1nc2ccccc2c(=O)n1-c1ccccc1	.	-0.665
Cc1cccc(CCCOCCOC(=O)NNC(=O)c2sc(-c3ccc(C(F)(F)F)cc3)nc2C)n1	.	5.29
CN1CCN(c2ccccc2NC(=O)c2cccs2)CC1	-0.45	-0.925
COc1ccc(C2C(N3C(=O)c4c(Cl)c(Cl)c(Cl)c(Cl)c4C3=O)C(=O)N2c2ccc(Br)cc2)cc1Br (stereo not given)	.	-0.185
O=C(NC(=O)N1CCCCC1)c1ccccc1	2.3	-0.21
Cc1cccc(NC(=S)NN)c1	-0.4	0.28
SMILES	AID504770	Ba CapD inh
O=C(Cc1ccccc1)N/N=C/c1cccs1	-0.05	.
CCCCN(C)c1nc(-c2ccco2)c2c(c1C#N)CC(C)(C)OC2	-0.9	2.44
O=C(/C=C/c1ccccc1)/C=C/c1ccco1	2.1	-1.97
Cn1cccc1/C=C1/C(=O)NC(=O)N(Cc2ccccc2)C1=O	0.5	-0.095
CC1CCCN(Cc2nc3c(c(=O)n(C)c(=O)n3C)n2CC(N)=O)C1 (stereo not given)	2.5	-0.075
O=C(O)C1C2C=CC(C2)C1C(=O)N1CCN(C2CCCCC2)CC1 (stereo not given)	0.8	-0.745
Cc1ccc(-c2cn3nc(C(F)(F)F)sc3n2)cc1	0.5	0.28
COC(=O)c1nnn(-c2nonc2N)c1CSc1nc2ccccc2s1	.	0.05
CC1Sc2ccc(C(=O)NCCc3ccccn3)cc2NC1=O (stereo not given)	0.75	.
CCOC(=O)c1oc2ccc3c(c2c1C)C(=O)CC1(CCCC1)O3	1.6	-0.51
COc1cc(/C=C2\C(=O)NC(=S)N(c3ccc(Cl)cc3)C2=O)cc(OC)c1O	.	0.655
COc1cccc(NC2C=CS(=O)(=O)C2)c1 (stereo not given)	0.2	0.2
Cc1occc1-c1nnc(SC2CCCCN(C(=O)c3ccc(F)cc3)C2=O)n1C (stereo not given)	0	.
COCc1cc(=O)oc2cc(OC(C)=O)ccc12	2.15	8.67
Cc1cc(C)n(-c2nc3nonc3nc2Nc2cccc(C)c2C)n1	.	-0.065
Cc1nc2sccn2c(=O)c1CCN1CCC(=C(c2ccc(F)cc2)c2ccc(F)cc2)CC1	.	0.09
Cc1ccc2nc(COC(=O)c3c(-c4ccccc4)noc3C)cc(=O)n2c1	1.45	.
COc1ccc(/C=C(/NC(=O)c2ccco2)C(=O)NCCc2c[nH]c3ccccc23)cc1OC	.	-0.3
O=S(=O)(Nc1ccc(Cl)c(C(F)(F)F)c1)c1ccc(S(=O)(=O)N2CCOCC2)cc1	-0.45	.
CCC(=O)Nc1sc2c(c1C#N)CCC2	0.55	0.125
O=C(NC1CCCC1)c1ccc2c(c1)sc1nc(-c3ccccc3)cn12	1.2	0.265
O=C(CN1CCCN(S(=O)(=O)c2ccc(Br)s2)CC1)Nc1ccc(Cl)cc1	-0.55	0.325
CC(Sc1nnnn1C1CC1)C(=O)NC(c1ccccc1)c1ccccc1 (stereo not given)	-0.5	.
N#CCCN(C(=O)CCN1C(=O)/C(=C/c2ccc3c(c2)OCO3)SC1=S)c1ccccc1	.	-1.99
CN=C(Nc1cc(C)nn1CCC#N)c1ccccc1F	-0.65	0.115

Some of the entries so far, comma-delimited.
smiles,AID504770,Ba CapD inh
COc1ccc(C2C(N3C(=O)c4c(Cl)c(Cl)c(Cl)c(Cl)c4C3=O)C(=O)N2c2ccc(Br)cc2)cc1Br (stereo not given),.,-0.185
O=C(NC(=O)N1CCCCC1)c1ccccc1,2.3,-0.21
Cc1cccc(NC(=S)NN)c1,-0.4,0.28
O=C(Cc1ccccc1)N/N=C/c1cccs1,-0.05,.
CCCCN(C)c1nc(-c2ccco2)c2c(c1C#N)CC(C)(C)OC2,-0.9,2.44
O=C(/C=C/c1ccccc1)/C=C/c1ccco1,2.1,-1.97

Next section
SMILES	AID504770	Ba CapD inh
COc1ccc(OC)c(-n2c(=S)[nH]c3c(sc(=S)n3-c3ccc(C)c(C)c3)c2=O)c1	.	-0.665
Cc1nc2scc(-c3cccs3)c2c(=O)n1-n1cccc1	-0.6	-0.765
O=C(CCCn1c(=O)oc2ccccc21)Oc1ccc(-c2nnco2)cc1	-0.6	.
Cc1cc(C(=O)CSc2nnc(-c3cccc(F)c3)n2N)c(C)n1CC1CCCO1 (stereo not given)	0.75	.
COC(=O)c1scc(S(=O)(=O)c2ccc(Cl)cc2)c1N	-0.3	2.63
COc1ccc(C2C3=C(Nc4ncnn42)c2cc(Cl)ccc2OC3c2cccs2)cc1 (stereo not given)	.	1.77
CC1=NN(c2ccc(Br)cc2)C(=O)/C1=C/c1ccc(-c2ccc3c(c2)C(=O)NC3=O)o1	0.45	-0.34
Cc1cc2c(cc(C(=O)N3CCC(C(=O)N4CCCC4)CC3)n2Cc2c(F)cccc2Cl)o1	-0.45	0.19
CC(=NOC(=O)c1c(-c2c(Cl)cccc2Cl)noc1C)c1ccccc1O	.	0.21
Cc1cc(C(=O)Oc2ccccc2NC2=NS(=O)(=O)c3ccccc32)ccc1[N+](=O)[O-]	.	-0.275
O=C(NCCc1ccccc1)c1ccc(-n2cc(-c3ccnc4ccccc34)cn2)cc1	.	4.22
O=C(/C=C(\O)c1ccc(Cl)cc1)C(F)(F)F	-4.3*	-2.66
COc1ccc(-c2cc(C(F)(F)F)n3nc(C(=O)NCc4ccccc4)cc3n2)cc1OC	.	0.035
Cc1[nH]c2ccccc2c1SCC(N)=O	-0.5	0.21
COc1ccc(N2C(=N)S/C(=C\c3ccccc3[N+](=O)[O-])C2=O)cc1	.	-1.5
Cn1c(C(=O)N2CCCCC2)cc2sccc21	-0.4	-0.08
COc1ccc(Cl)cc1S(=O)(=O)NC1CCCC1	1	0.3
Cc1ccc(NC(=S)NC2CC2)c(C)c1	-1.35	2.31
Cc1cc2c3c([nH]c2cc1S(=O)(=O)NCc1ccco1)CCCC3=O	0.55	-0.005

Screening results as filed in PubChem.
